# Resorufin autofl: compound fluoresces in the resorufin spectral region; Compound fluorescence, resorufin region 547/598 nm, buffer; stronger effect = higher value; max dye-equivalent concentration, M; 0.04% of 59,000 active; AID 588; active = above 10 nM dye equivalent; inconclusive = 1 to 10 nM; inactive = 1 nM or less; a few of its hits are not listed in these tables; also: highest value over a series up to 38 µM
#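 Intrinsic fluorescence profiled in the resorufin window (ex 547 nm, em 598 nm) after 15 min at room temperature in pH 8.0 Tris buffer (100 mM); responses normalized against a six-point resorufin standard series as dye-equivalent concentration.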
# A647 autofl: compound fluoresces in the A647 spectral region | Compound fluorescence, A647 channel (570/671 nm), Tris buffer | max dye-equivalent concentration, M | 59,000 tested, under 10 active | AID 592; active means above 1 µM dye equivalent; inconclusive means 0.1 to 1 µM; inactive means 0.1 µM or less;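 also: values scaled relative to a standard on each plate; highest value over a series up to 38 µM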
#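 Compounds pinned into 100 mM Tris pH 8.0, 15 min at room temperature, then read with 570 nm excitation/671 nm emission filters. Fluorescence normalized to an on-plate six-point Alexa 647 standard curve, giving dye-equivalent concentration per compound concentration.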
# AID923: qHTS Assay for Allosteric/Competitive Inhibitors of Caspase-1: Spectroscopic Profiling in AFC Spectral Region. compound fluorescence, AFC spectral region (405/520 nm); almost no hit is shown here. Potency, µM (top dose mostly 57.5 µM), for the others: at the highest dose fluorescence increase, most hits filed as activators. 1.1% of 75,000 active. AID 923, 2007; active = well fitted activation curve with a large enough effect; inconclusive = small, poorly fitted or top-dose-only effect;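 also: potency is read from the fitted curve at half-maximal effect; 0% is about no effect; scaled to a free AFC standard on each plate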
#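 Titrations up to 57 uM read every 20 sec for 3 min (405/520 nm) with 50 nM caspase 1 and 5 uM Ac-WEHD-AFC, pH 7.5 HEPES buffer. Fluorescence-vs-time intercept gave baseline, scaled against on-plate AFC standard.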
# A488 autofl: compound autofluorescence in A488 spectral region. compound autofluorescence, A488 spectral region, dye equivalency; stronger effect = higher value. max dye equivalency, M. 0.1% of 59,000 active; active = above 10 nM dye equivalent; inconclusive = 1 to 10 nM; inactive = 1 nM or less; about half of its hits are not listed in these tables;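 also: highest value over a series up to 38 µM; compound alone in buffer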
#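 Compound autofluorescence was read in 100 mM Tris pH 8.0 after 15 min at room temperature, ex 480 nm/em 540 nm. Intensities were converted to A488 dye-equivalent concentration using an on-plate six-point A488 standard curve.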
# TSHR ag: agonists of human thyroid stimulating hormone receptor; P16473; HEK293-CNG-TSHR cells (CNG channel as cAMP sensor), membrane potential dye, cAMP; Potency, µM (doses to about 57.1 µM), without a hit: top-dose activation, usual class: activators; 0.48% of 73,000 active; AID 926; active = well fitted activation curve of enough size with the parental cells flat; inconclusive = any curve in the parental cells; inactive = parental cells flat and receptor cells flat or falling; also: potency is read from the fitted curve at half-maximal effect; % of control where 0% means no effect; weak receptor curves with flat parental cells got no call and are not listed
# Target sequence (P16473 whole entry, looked up): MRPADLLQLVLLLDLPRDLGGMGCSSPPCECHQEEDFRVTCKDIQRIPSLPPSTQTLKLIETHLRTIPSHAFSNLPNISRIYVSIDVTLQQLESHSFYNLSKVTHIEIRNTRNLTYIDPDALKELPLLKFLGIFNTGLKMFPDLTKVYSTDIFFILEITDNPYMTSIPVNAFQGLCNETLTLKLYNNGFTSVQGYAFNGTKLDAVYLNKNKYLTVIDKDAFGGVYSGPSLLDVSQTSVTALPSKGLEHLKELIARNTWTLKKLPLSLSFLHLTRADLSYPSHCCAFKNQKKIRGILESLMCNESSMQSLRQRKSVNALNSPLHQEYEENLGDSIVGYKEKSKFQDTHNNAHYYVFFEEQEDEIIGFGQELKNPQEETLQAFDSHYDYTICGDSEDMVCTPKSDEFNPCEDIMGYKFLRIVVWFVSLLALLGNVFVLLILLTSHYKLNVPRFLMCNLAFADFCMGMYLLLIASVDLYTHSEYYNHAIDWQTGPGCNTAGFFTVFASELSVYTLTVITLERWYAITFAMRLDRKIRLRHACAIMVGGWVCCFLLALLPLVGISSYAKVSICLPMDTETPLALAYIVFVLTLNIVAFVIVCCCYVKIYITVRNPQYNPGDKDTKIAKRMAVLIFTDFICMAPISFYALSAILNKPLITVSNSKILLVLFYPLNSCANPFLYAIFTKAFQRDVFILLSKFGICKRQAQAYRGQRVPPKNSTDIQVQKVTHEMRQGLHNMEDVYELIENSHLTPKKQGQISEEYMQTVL
#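 cAMP rise detected as CNG-channel membrane depolarization by fluorescent dye (emission 590 nm), 30 min after compound, following 60 min dye loading containing 100 uM RO 20-1724 at room temperature. Cells: TSHR/CNG HEK 293, with parental CNG HEK 293 as control.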
# An asterisk follows results filed as active; i = inactive; ? = inconclusive; . = no result given; & = joins results of further samples; [ ] = remark or other dose.
SMILES	A647 autofl	A488 autofl	TSHR ag	AID923	Resorufin autofl
Oc1cc(Cl)c(Cl)c(Cl)c1Cl	.	.	?	-3.9%	.
CN1CCN(C(=O)COc2ccc(C(C)(C)C)cc2Br)CC1	1e-09	i	-17%	0.3%	i
Cc1c2ccncc2c(C)c2c1[nH]c1ccccc12	3.7e-09&1e-09&5.1e-09	i	-21%[25.6 µM]	7.9%	i
CCC(=NCc1ccc2c(c1)OCO2)c1c(O)n(C2CCCCC2)c(=O)[nH]c1=O	1.8e-09	i	21%	1.4%	i
O=c1cccc2n1CC1CC2CN(Cc2cccc(Cl)c2Cl)C1 (stereo not drawn)	3.6e-08	i	.	-0.2%	i
O=c1c2ccccc2[nH]c(=S)n1-c1ccc2c(c1)OCO2	1e-09	i	-2%	0.0%	i
N[C@H](Cc1ccc(N(CCCl)CCCl)cc1)C(=O)O	1.4e-08	i	6%	-1.9%	i
c1ccccc1	.	.	?	3.9%&5.9%	.
O=C(c1ccccc1)c1cn(CC(=O)N2CCOCC2)c2ccccc12	1e-09	i	4%	-0.9%	i
C=CCn1c(O)c(C=Nc2ccc(N(CC)CC)cc2)c(=O)[nH]c1=O	1e-09	i	.	.	i
CCC1(CC)C(=O)C=CNC1=O	6.9e-09	i	6%[25.6 µM]	0.4%	i
CCCCn1c(O)c(C(CC)=NCc2ccc3c(c2)OCO3)c(=O)[nH]c1=O	1e-09	i	.	1.7%	i
CCC(=NCCCO)c1c(O)n(-c2ccc(OC)cc2)c(=O)[nH]c1=O	1.7e-09	i	0%	0.6%	i
NC(N)=Nc1ccc2[nH]c3c(c2c1)C[C@]1(O)[C@@H]2Cc4ccc(O)c5c4[C@]1(CCN2CC1CC1)[C@@H]3O5	.	.	-3%	2.5%	.
CCOc1cc(C(=O)N2CCC3(CC2)OCCO3)cc(OCC)c1OCC	1e-09	i	1%	-2.1%	i
Cc1ccc(C2(O)CCN3CCCCC32)cc1 (stereo not drawn)	1.2e-09	i	13%	-0.2%	i
CN1C(=O)N(C)C(=O)C2(Sc3ccccc3C2=O)C1=O	1e-09	i	19%	3.4%	i
Clc1ccc2c(N3CCNCC3)ccnc2c1	5.7e-09	i	18%	0.8%	i
CC(Cc1ccccc1)[n+]1cc(/N=C(\[O-])N(C)C)on1 (stereo not drawn)	6.2e-09	i	-3%	-0.8%	i
CCn1c(=O)cc(OCC(=O)N2CCC3(CC2)OCCO3)c2ccccc21	1e-09	i	2%[11.4 µM]	-1.2%	i
C[C@]12CC[C@@H]3[C@H](CCC4=CC(=O)CC[C@]43C)[C@]1(O)CC[C@@]2(O)C(=O)CO	3.5e-08	i	-2%[11.4 µM]	-2.4%[11.5 µM]	i
NNCc1cccc(O)c1	9.1e-09	i	3%	3.1%	i
CCCCCCn1c(=O)c(C(=O)Nc2c(C)n(C)n(-c3ccccc3)c2=O)c(O)c2ccccc21	1.2e-08	i	?	0.1%	i
Cc1nc2ccccc2c(=O)n1-n1cnnc1	2.3e-08	i	-3%	0.3%	i
CCC[CH2][Sn]([Cl])([Cl])[Cl]	.	.	-6%	2.2%	.
CC(=O)NC1CC2CCCC(C1)N2 (stereo not drawn)	1e-09	i	-6%	-1.8%	i
Cc1ccccc1[N+](=O)[O-]	.	.	7%	-0.9%	.
CCN(CC)C(=O)c1ccc(NC(=O)c2cc(-n3cnnc3)ccc2Cl)cc1	3.1e-08	i	-3%	-0.8%	i
N[C@@H](Cc1ccc(N(CCCl)CCCl)cc1)C(=O)O	.	.	-6%	-4.0%	.
O=C(Nc1ccccc1)N1CCC2(CC1)CCN(C(=O)Oc1ccccc1)CC2	3.2e-08	i	3%	3.9%	i
CNC(=O)OCC[N+](C)(C)C	6.7e-09	i	8%	-5.3%	i
COc1cc2nc(CN3CC=C(c4ccccc4)CC3)[nH]c(=O)c2cc1OC	8.1e-09	i	12%	13%	i
O=C(c1ccc2nc(-c3ccco3)c(-c3ccco3)nc2c1)N1CCC2(CC1)OCCO2	2.9e-08	i	-4%	9.8%	i
CCc1nc2ccccc2c(=O)n1-c1cccc(OC)c1	1e-09	i	0%	1.8%	i
Oc1ccc2[nH]cc(CCCCN3CC=C(c4ccccc4)CC3)c2c1	.	.	?	3.5%	.
NCC(O)c1ccc(O)cc1 (stereo not drawn)	.	.	9%&-2%	0.1%&3.4%&5.0%	.
ClCC(Cl)Cl	.	.	-1%	1.8%	.
C[C@]12CCC(=O)C=C1CCC1C2CC[C@@]2(C)C1CC[C@@]2(O)CC#N (stereo partly drawn)	1.9e-08	i	9%[11.4 µM]	-4.3%	i
Oc1ccc2c3c1O[C@H]1c4oc5ccccc5c4C[C@]4(O)[C@H](C2)N(CC2CC2)CC[C@@]314	1e-09	i	6%&-13%	-3.2%&-0.2%	i
O=C(c1ccco1)N1CCC2(CC1)CN(Cc1ccncc1)C2	1.5e-09	i	-1%	0.9%	i
COC(=O)c1cc(C(O)(C(=O)OC)C(F)(F)F)c(/N=C/N(C)C)s1 (stereo not drawn)	1e-09	i	6%	0.1%	i
Cc1cc(Cl)ccc1OCC(=O)N1CCN(C)CC1	.	.	2%	-0.4%	.
O=C(NC1(C(F)(F)F)Oc2ccccc2O1)N1CCC2(CC1)OCCO2	1e-09	i	?	0.6%	i
COC(=O)C(O)(c1c(C)[nH]n(-c2ccccc2)c1=O)C(F)(F)F (stereo not drawn)	2.9e-08	i	6%	2.0%	i
CC(C)(C)NC[C@H](O)c1cc(Cl)c(N)c(Cl)c1	1e-09	i	?	-2.0%[25.7 µM]	i
C/C(=C\C=C/[C@@H](C)C(=O)O)[C@H]1CN[C@H](C(=O)O)[C@@H]1CC(=O)O	.	.	9%	-2.7%	.
CCCBr	.	.	1%	0.1%	.
C=CCN1C(=O)C2(C(C(=O)OCC)=C(N)Oc3ccccc32)C2=C1CCCC2=O (stereo not drawn)	4.8e-08	i	4%	1.4%	i
N[C@H](Cn1oc(=O)[nH]c1=O)C(=O)O	5.2e-08	i	8%	.	i
Cc1[nH]c2ccc(O)cc2c1CCN	3.3e-09	i	1%&5%	0.8%&0.3%	i
CCCc1nc2ccccc2c(=O)n1-c1cccc(OC)c1	2.1e-08	i	-9%	1.0%	i
CNCCc1c[nH]c2ccc(O)cc12	2.7e-09	i	-1%	1.6%&-0.8%	i
COc1ccc2c(c1)CC1(CN2C)C(=O)NC(=O)N(c2ccc(C)cc2)C1=O (stereo not drawn)	1e-09	i	9%	6.1%	i
Clc1cccc(C(Cl)(Cl)Cl)n1	.	.	?	1.6%	.
O=C/C=C/c1ccccc1	.	.	1%&-5%	-1.5%&1.3%	.
Fc1ccc(C(OCCN2CCN(C/C=C\c3ccccc3)CC2)c2ccc(F)cc2)cc1	.	.	?	-4.4%	.
S=c1[nH]c2ccccc2[nH]1	.	.	1%	-0.3%	.
CCCN(CCC)[C@@H]1CCc2ccc(O)cc2C1	1.8e-08&2.9e-08	i	10%&20%&7%	18%&-1.6%&-2.2%	i
O=C(C(Cc1ccccc1)NS(=O)(=O)c1ccc(F)cc1)N1CCC2(CC1)OCCO2 (stereo not drawn)	2e-08	i	-1%	-0.4%	i
CCC(=NCC1CCCO1)c1c(O)[nH]c(=O)[nH]c1=O (stereo not drawn)	2.5e-09	i	-2%	0.1%	i

# Two entries picked at random from those above:
SMILES	A647 autofl	A488 autofl	TSHR ag	AID923	Resorufin autofl
Fc1ccc(C(OCCN2CCN(C/C=C\c3ccccc3)CC2)c2ccc(F)cc2)cc1	.	.	?	-4.4%	.
CCC(=NCC1CCCO1)c1c(O)[nH]c(=O)[nH]c1=O (stereo not drawn)	2.5e-09	i	-2%	0.1%	i

# Next part:
SMILES	A647 autofl	A488 autofl	TSHR ag	AID923	Resorufin autofl
N#CCCCCC#N	.	.	2%	-1.1%	.
C[C@H]1CN(C2CCC(C#N)(c3ccc(F)cc3)CC2)CC[C@@]1(C(=O)O)c1ccccc1 (stereo partly drawn)	4.1e-08	i	-6%[25.6 µM]	0.8%[25.7 µM]	i
N[C@@H](Cc1c[nH]c2ccccc12)c1nnc(SCc2ccc(Cl)cc2)o1	3.3e-08	i	13%	0.6%	i
CCCCn1c(O)c(C(C)=Nc2ccc(OCC)cc2)c(=O)[nH]c1=O	1e-08	i	.	1.2%	i
CN(C=O)CP(=O)(O)CN(C)C=O	4e-08	i	18%	-1.1%	i
CC(C)(C)OC(=O)c1c(N)n(Cc2ccco2)c2nc3ccccc3nc12	1e-08	i	.	.	i
O=C1C[C@@H]2OCC=C3CN4CC[C@]56c7ccccc7N1[C@@H]5[C@@H]2[C@H]3C[C@H]46 (tested in a mixture with another compound)	1e-09	i	-3%[11.4 µM]	-0.2%[11.5 µM]	i
O=C(Oc1ccccc1)N1CCC2(CCN(Cc3nccs3)CC2)CC1	1e-09	i	-1%	3.1%	i
COc1ccc2c(c1OC)C(=O)O[C@H]2[C@H]1c2cc3c(cc2CCN1C)OCO3	6.3e-09&5.6e-09&3.8e-09	i	?	3.2%[25.7 µM]	i
O=C(O)CCl	.	.	?	-0.7%	.
NC(=O)CN1C[C@@H](O)CC1=O	1.7e-09	i	4%	-2.7%	i
Cc1cccc(-n2c(C)nc3cc(C(=O)N4CCC5(CC4)OCCO5)ccc32)c1	1e-09	i	10%	-2.7%	i
C=CCN1CC[C@]23c4c5ccc(O)c4O[C@@H]2C(=O)CC[C@@]3(O)[C@H]1C5	3.4e-08	i	3%	-2.3%	i
Cn1cc(C(=O)C(=O)N[C@H]2CN3CCC2CC3)c2ccccc21	.	.	24%	0.2%	.
C[C@@H]1CC[C@@]2(OC1)O[C@H]1[C@@H](O)[C@H]3[C@@H]4CC[C@H]5C[C@@H](O[C@@H]6O[C@H](CO)[C@H](O[C@@H]7O[C@H](CO)[C@@H](O)[C@H](O[C@@H]8OC[C@@H](O)[C@H](O)[C@H]8O)[C@H]7O[C@@H]7O[C@H](CO)[C@@H](O)[C@H](O[C@@H]8O[C@H](CO)[C@@H](O)[C@H](O)[C@H]8O)[C@H]7O)[C@H](O)[C@H]6O)[C@H](O)C[C@]5(C)[C@H]4CC[C@]3(C)[C@H]1[C@@H]2C	.	.	?	-2.3%	.
CCSC(=O)N1CCCCCC1	.	.	-2%	3.9%	.
CC1(C)C2CC=C(CN3CCC(O)CC3)C1C2 (stereo not drawn)	2.4e-09	i	.	1.6%	i
COc1ccc(Cn2c(O)c(C=NCCN3CCOCC3)c(=O)[nH]c2=O)cc1	1e-09	i	.	.	i
Oc1cc(Cl)c(Cl)c(Cl)c1	.	.	21%	1.4%	.
C[C@@]12CC[C@H](O)C[C@@H]1CC[C@H]1[C@@H]2C[C@@H](O)[C@]2(C)[C@@H](C3=CC(=O)OC3)CC[C@]12O	8.4e-09	i	12%[25.6 µM]	1.2%[25.7 µM]	i
CCn1c(O)c(C=NCc2cccs2)c(=O)[nH]c1=O	1e-09	i	3%	-0.3%	i

# In the list so far, 3 contain a cyano group.
SMILES	A647 autofl	A488 autofl	TSHR ag	AID923	Resorufin autofl
C[C@]12CCC(=O)C=C1CCC1C2CC[C@@]2(C)C1CC[C@@]2(O)CC#N (stereo partly drawn)	1.9e-08	i	9%[11.4 µM]	-4.3%	i
N#CCCCCC#N	.	.	2%	-1.1%	.
C[C@H]1CN(C2CCC(C#N)(c3ccc(F)cc3)CC2)CC[C@@]1(C(=O)O)c1ccccc1 (stereo partly drawn)	4.1e-08	i	-6%[25.6 µM]	0.8%[25.7 µM]	i

# Some of the compounds tested (hit frequency here may not be typical).
